Source: PubChem BioAssay (National Center for Advancing Translational Sciences (NCATS))
miR-21 FLuc – raises the signal of a miR-21 reporter; HeLa miR-21 FLuc reporter, luciferase, 48 h; Potency, µM (titrated, usually from 38.3 µM), inactives show at the top dose reporter change, positive = more light; 340,000 tested, under 10 active; AID 2288; active = well fitted rising curve with a large enough effect; inconclusive = small, poorly fitted or top-dose-only effect; inactive = no such curve, though single readings can be large or run the other way;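 further: % of control where 0% means no effect; miR-21 action dims this reporter so a rising signal means less miR-21 action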
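HeLa miR-21-FLuc reporter line, endogenous miR-21; 2000 cells/well in DMEM/10% FBS; compound titration up to ~40uM final, 48 h, 37 degree Celsius; luciferase detection reagent, 15 min lysis, CCD luminescence.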
Rango release inh – inhibition of RanGTP-driven Rango-importin beta dissociation. O95149+P62826. Biochemical FRET Rango-importin beta, RanGTP-induced dissociation. Potency, µM (titrated, usually from 46.1 µM), for inactives: at the highest dose activity change, negative = inhibition. hit rate 0.071% among 340,000; active means falling FRET ratio curve, often poorly fitted, with flat reads before Ran was added; inconclusive means other falling curves, or compound fluorescence or quenching; inactive means flat or rising ratio curve;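 further: potency means the concentration at half of the fitted maximal effect; % of control where 0% means no effect; nearly all actives have a fitted effect of over 45% in size; -100% = wells without RanGTP and RCC1; the record marks most hits as doubtful in a second field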
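Rango (0.1 uM)–importin beta (0.25 uM) complex; RanGTP-RCC1 trigger; 45 min RT; CFP/YFP FRET read.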
Rango-impB inh – prevents formation of the Rango-importin beta complex; Q14974; Rango CFP/YFP FRET sensor + importin beta, 45 min; Potency, µM (series often up to 92.2 µM), inactives show top-dose inhibition of complex formation; hit rate 0.031% among 340,000; active = rising FRET ratio curve, often small or poorly fitted; inconclusive = mostly compound fluorescence or quenching in the first reads; inactive = flat curves in all reads;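 further: potency means the concentration at half of the fitted maximal effect; 0% = DMSO wells and 100% = buffer wells lacking importin beta; nearly all actives have a fitted effect of over 15% in size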
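FRET biosensor (snurportin 1 IBB flanked by EYFP and cerulean), 50 nM, with compound 5 min, then 0.125 microM importin beta in PBS, 1 mM DTT, 0.02% Tween-20, 0.1% BSA. CFP/YFP ratio read after 45 min at room temperature; pre-read flags interference.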
GLA inh pH 4.5 – alpha-galactosidase A (human) inhibition, pH 4.5. purified enzyme, 4-MU-alpha-Gal fluorescence, pH 4.5. activity change, negative = inhibition, % at 105 µM. 230,000 tested, under 10 active. AID 1467; inconclusive = small, poorly fitted or top-dose-only inhibition, or a rising curve; inactive = flat fitted curve, though single readings scatter; no compound was filed as active;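 further: 0% = full activity with enzyme and -100% = basal without enzyme; dose as in the result columns while the protocol names 77 µM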
Target sequence (P06280 whole entry, looked up): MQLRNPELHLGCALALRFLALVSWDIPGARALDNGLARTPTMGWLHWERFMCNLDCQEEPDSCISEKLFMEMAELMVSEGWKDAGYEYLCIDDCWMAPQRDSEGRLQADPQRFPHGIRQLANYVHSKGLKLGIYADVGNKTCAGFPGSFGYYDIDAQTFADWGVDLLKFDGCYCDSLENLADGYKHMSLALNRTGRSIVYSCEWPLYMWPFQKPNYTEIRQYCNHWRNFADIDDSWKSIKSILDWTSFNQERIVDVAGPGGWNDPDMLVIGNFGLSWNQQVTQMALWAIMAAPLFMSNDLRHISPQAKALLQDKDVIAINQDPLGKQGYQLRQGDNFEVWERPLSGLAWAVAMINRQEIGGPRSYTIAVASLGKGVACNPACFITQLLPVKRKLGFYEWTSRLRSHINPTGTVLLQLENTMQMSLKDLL
* = called active by the depositor; ? = inconclusive; . = no result given; & = joins results of further samples.

miR-21 FLuc | GLA inh pH 4.5 | Rango release inh | Rango-impB inh | SMILES
-3% | -1 | -13% | 0.1% | CCC(=O)N(C)CCc1cc2c(c(OC)c1/C=N/NC(=O)c1ccncc1)OCO2
-6%&0% | -6&-8&-4&0 | . | . | COc1ccc(NS(=O)(=O)c2ccc(N)cc2)nn1
1% | . | -4% | 0.4% | Cc1ccc(-n2nc3c(=O)n(C(C)C(=O)NC4CC4)nc(C)c3c2C)cc1 (stereo not given)
2% | . | 5% | 0.2% | Cc1ccc(NC(=O)C2CCN(S(=O)(=O)c3ccc4c(c3)C(C)(C)C(=O)N4C)CC2)c(C)c1
-1% | 7 | 0% | -0.1% | CCC(OC(=O)C(NC(=O)c1ccccc1)c1ccccc1)C(=O)Nc1cc(C)on1 (stereo not given)
-2% | 11 | 2% | -2.6% | ON1C(c2ccccc2C(F)(F)F)N(O)[C@H]2CCCC[C@H]21 (stereo not given in full)
-5% | -2 | -11% | -0.2% | CCCCC(=O)N/N=C(C)/C=C/c1ccccc1F
. | . | -22% | -1.2% | O=C(Nc1ccc(F)cc1)C1CCN(C(=O)c2ccc(F)cc2)CC1
. | . | 3% | -3.9% | COc1cc(F)c(C2=CC(=O)C[C@H](c3ccc(Cl)cc3)C2)cc1F
-2% | 6 | 0% | 6.6% | CCOc1cc(C(=O)Nc2ccon2)cc(OCC)c1OCC
3% | . | -4% | 2.8% | CCOc1ccccc1-n1c(=S)sc2c(=O)n(-c3ccc(F)cc3)c(SCC(=O)O)nc21
-40% | -6 | 1% | -2.8% | Cc1cc(C)c(C)c(S(=O)(=O)NCc2ccc(C(=O)N3CCCCC3)cc2)c1C
. | . | -10% | 1.5% | C#CCOCCOCCOCCNc1nc(N2CCN(C(=O)CCCCCCCCCCNC(=O)Cn3cc(C[C@@H](C)O)nn3)CC2)nc(N2CCN(C(=O)CCCCCCCCCCNC(=O)[C@H](CCCN=C(N)N)n3cc(C[C@@H](C)CC)nn3)CC2)n1
-48% | 4 | 0% | -1.4% | Cc1cc(C(=O)CSc2nnnn2-c2ccccc2)c(C)n1CC1CCCO1 (stereo not given)
-12% | -20 | 36% | 3.0% | Cc1cnc(C(=O)NC(C)CCc2ccccc2)cn1 (stereo not given)
-6% | -4 | 12% | -4.5% | O=C(Nc1ccc2c(c1)OCCO2)c1oc2ccccc2c1NC(=O)C1CC1
-2% | . | 0% | 1.0% | COCCn1c(SCC(=O)N(C)c2ccccc2)nc2c([nH]c3ccccc32)c1=O
-1% | -2 | 23%&3% | 4.9%&0.6% | CCOC(=O)N1CCC(Nc2c(NCCCN(CC)Cc3ccccc3)c(=O)c2=O)CC1
0% | -4 | 9% | 0.6% | COC(=O)C1=C(NC(=O)c2ccccc2C)CCS1
-36% | -16 | -4% | 2.0% | O=C(Nc1ccc2c(c1)OCCO2)N1CCN(c2ccccc2)CC1
2% | . | 10% | -0.8% | Cc1cc(OCC(O)CN2CCc3ccccc3C2)cc(C(C)C)c1 (stereo not given)
-52% | -5 | -11% | 4.1% | Cn1c(=N)n(CC(=O)C(C)(C)C)c2ccccc21
25% | -3 | 27% | 0.6% | COC(=O)c1cnn(-c2ccc(Cl)cc2)c1/C=N/NC(N)=S
-2% | 7 | -7% | -6.4% | C#CCOCCOCCOCCNc1nc(N2CCN(C(=O)[C@H](CCC(=O)O)n3cc(C(N)[C@H](C)CC)nn3)CC2)nc(N2CCN(C(=O)[C@H](Cc3ccc(O)cc3)n3cc(C(N)[C@H](C)CC)nn3)CC2)n1 (stereo not given in full)

Profiles from above. Order of values: miR-21 FLuc | GLA inh pH 4.5 | Rango release inh | Rango-impB inh
CCOC(=O)N1CCC(Nc2c(NCCCN(CC)Cc3ccccc3)c(=O)c2=O)CC1 as listed: -1% | -2 | 23%&3% | 4.9%&0.6%
COC(=O)c1cnn(-c2ccc(Cl)cc2)c1/C=N/NC(N)=S as listed: 25% | -3 | 27% | 0.6%
Cn1c(=N)n(CC(=O)C(C)(C)C)c2ccccc21 as listed: -52% | -5 | -11% | 4.1%
C#CCOCCOCCOCCNc1nc(N2CCN(C(=O)[C@H](CCC(=O)O)n3cc(C(N)[C@H](C)CC)nn3)CC2)nc(N2CCN(C(=O)[C@H](Cc3ccc(O)cc3)n3cc(C(N)[C@H](C)CC)nn3)CC2)n1 (stereo not given in full) as listed: -2% | 7 | -7% | -6.4%

Next part.
miR-21 FLuc | GLA inh pH 4.5 | Rango release inh | Rango-impB inh | SMILES
1% | . | 26% | -1.2% | O=C(O)C(Cc1c[nH]c2ccccc12)NS(=O)(=O)c1ccc(Cl)c(C(F)(F)F)c1 (stereo not given)
-1% | 4 | 10% | 4.8% | Clc1ccc(NCn2cncn2)nc1
-7% | 2 | 16% | 3.5% | CCCC(=O)Nc1ccc(C(=O)NNC(=O)c2ccco2)cc1
0% | 6 | ? | -0.1% | CC1CCCC(NC(=O)C2CCC(CNc3c(N4CCCC4)c(=O)c3=O)CC2)C1C (stereo not given)
0% | -9 | 0% | -4.0% | O=C(c1cnn2c(C(F)F)cc(-c3ccccc3)nc12)N1CCCc2ccccc21
2% | -5 | 6% | -1.8% | COCc1ccc(CN2CCCC(CO)(Cc3cccc(OC)c3)C2)o1 (stereo not given)
. | . | -6% | 9.8% | O=C1C=C(c2ccccc2)CO1
-18% | 0 | 2% | 8.9% | Cc1cccc(C(=O)NNC(=O)CCC(=O)Nc2cccc(Cl)c2C)c1
-7% | 5 | 3% | 1.2% | CCOC(=O)C1(Cc2cccc(Cl)c2)CCCN(C(=O)c2ccc(C)nc2)C1 (stereo not given)
-1% | . | 12% | 0.1% | COc1ccc(C(CNC(=O)COc2ccc(Cl)cc2C)N2CCCCC2)cc1 (stereo not given)
. | . | -2% | 0.2% | CN(Cc1ccccc1)C(=O)COc1ccc2ccccc2c1
-4% | -5 | -8% | 0.4% | CCOC(=O)c1cc(-c2ccc(OC)cc2)n(CCC(=O)NCCN2CCC(C)CC2)c1C
1% | -1 | 2% | -3.1% | COc1cc(/C=C/C(=O)O)cc(S(=O)(=O)Nc2cc(Cl)c(Cl)cc2Cl)c1OC
-2% | 3 | -9% | -2.8% | Cc1nn(Cc2cccc(F)c2)c(C)c1NC(=O)c1c(Cl)cnn1C
-7% | 10 | -5% | -0.6% | CCc1ccccc1Nc1nc(N)nc(COC(=O)c2cccn2C)n1
0% | -13 | 0% | 0.0% | CCCCN1CNC(=S)N(c2cc(C)ccc2C)C1
0% | 2 | -25% | -1.7% | Nn1c(SCC(=O)N2CCN(S(=O)(=O)c3ccccc3)CC2)nnc1-c1cccs1
-53% | . | -28% | -3.5% | Cn1c(COc2ccccc2Br)nc2ccccc21
19% | . | -16% | -2.9% | O=C(Nc1cccc2ncccc12)c1ccc([N+](=O)[O-])o1
-11% | 9 | 4% | 1.1% | COc1ccc(C2SCC(=O)N2c2c(C)n(C)n(-c3ccccc3)c2=O)cc1 (stereo not given)
-9% | 0 | 0% | -2.5% | COC(=O)CCn1nnc(-c2cccs2)n1
-6% | -3 | -9% | -3.6% | CCCCC1(C)NC(=O)N(CC(=O)Nc2ccc(S(=O)(=O)N3CCOCC3)cc2)C1=O (stereo not given)
15% | 3 | 0% | 0.5% | O=C(Nc1ccccc1)c1cccc(S(=O)(=O)NCc2ccco2)c1
13% | . | -1% | -3.9% | COc1ccc(C)cc1Nc1n[n+](-c2ccccc2)c(-c2ccc(OC)c(OC)c2OC)s1
9% | -4 | -11% | 1.7% | Cc1cccc(NC(=O)c2cc(Cl)nc3ccccc23)n1
-4% | . | 16% | 0.0% | Cc1coc2c1c(C)cc1oc(=O)c(CC(=O)NCCCCCC(=O)O)c(C)c12
-3% | 1 | 1% | -5.0% | Cc1ccc(N(CC(=O)NCc2cccnc2)S(C)(=O)=O)cc1C
-15% | 2 | 1% | -1.3% | CCOC(=O)c1cnn(-c2nc(C)cc(C)n2)c1N
22% | . | 0% | -0.5% | CN(C)CCCN1C(=O)c2cccc3cccc(c23)C1=O
7% | -8 | 15% | -1.3% | O=C1C=C(c2ccc(Cl)cc2)OC2(CCCC2)O1
17%&29% | . | -20% | 1.4% | O=S(=O)(c1ccccc1F)N1CCC(Oc2ccc(-n3cnnn3)cc2)CC1
-5% | 5 | -1% | -3.5% | O=C(c1ccco1)N1CCN(C2CC(=O)N(c3ccccc3)C2=O)CC1 (stereo not given)
-2% | 10 | -10% | 1.1% | FC(F)(F)COc1ccc(-c2nnc(SCc3c(Cl)cccc3Cl)o2)cn1
1% | 6 | 11% | -2.4% | CCOC(=O)c1[nH]c(CSc2nnnn2-c2ccccc2C)c(C(=O)OCC)c1C
-37% | -2 | 12% | -1.5% | CC(=O)N(C)c1ccc(NC(=O)Nc2ccccc2C)cc1
-4% | . | -6% | -1.8% | CC(=O)CSc1nnc(-c2ccco2)n1-c1ccccc1
-7% | 9 | 3% | 1.6% | N#Cc1c(NCCN)nc(-c2ccccc2)c2c1CCCC2
1% | . | -8% | -0.6% | CCCC1(c2ccccc2)NC(=O)NC1=O (stereo not given)
3% | 0 | -5% | 1.5% | O=C(Nc1cc([N+](=O)[O-])ccc1Cl)C1CC1
. | . | 2% | -1.6% | COc1ccc2c(CC(=O)NNC(=O)c3cccs3)coc2c1
-16% | 6 | -2% | 0.1% | COc1ccc(OC(=O)c2ccncc2)cc1
2% | -9 | 0% | -0.7% | COc1ccc(C(=O)CCN2CCc3cc(OC)c(OC)cc3C2)cc1
. | . | -12% | 2.8% | COc1cc2cnc(-c3ccccc3)c(-c3ccc(C#N)cc3)c2cc1OC
-6% | -6 | 1% | -1.5% | CCN(c1ccccc1)S(=O)(=O)c1ccc(C(=O)OC(C)C(=O)NCCC2=CCCCC2)cc1 (stereo not given)
-46% | 2 | 1% | 0.4% | CC1CC(C)CN(C(=O)c2cc3cc(Br)cc(Br)c3o2)C1 (stereo not given)
2% | -8 | ? | ? | COc1ccc(N(CC(=O)N/N=C/c2ccc(-c3ccc([N+](=O)[O-])cc3)o2)S(=O)(=O)c2ccc(C)cc2)cc1
-4% | . | -2% | 6.7% | O=C(NC1CCCCCC1)c1ccc(CS(=O)Cc2cccc(Cl)c2)o1 (stereo not given)
-2% | 2 | -12% | -4.6% | COC(=O)c1ccc(C2C(C(=O)OCC(C)C)=C(C)N=C3SCCC(=O)N32)cc1 (stereo not given)

Arranged by SMILES length (smallest number first): some entries from above.
miR-21 FLuc | GLA inh pH 4.5 | Rango release inh | Rango-impB inh | SMILES
2% | -9 | 0% | -0.7% | COc1ccc(C(=O)CCN2CCc3cc(OC)c(OC)cc3C2)cc1
-4% | . | -2% | 6.7% | O=C(NC1CCCCCC1)c1ccc(CS(=O)Cc2cccc(Cl)c2)o1 (stereo not given)
. | . | -12% | 2.8% | COc1cc2cnc(-c3ccccc3)c(-c3ccc(C#N)cc3)c2cc1OC

Remaining list, next part:
miR-21 FLuc | GLA inh pH 4.5 | Rango release inh | Rango-impB inh | SMILES
-4% | -6 | -18% | -4.4% | Oc1ccc2ccccc2c1/C=N/c1nc2c(s1)CCCC2
-4% | . | -10% | 1.1% | COc1ccc(/C=C/C(=O)O)cc1S(=O)(=O)N1CCc2ccccc21
-46% | -8 | 5% | -1.3% | CCN1CCN(c2cc(C)c3cc(NC(=O)c4cccs4)ccc3n2)CC1
-5% | 7 | 22% | 0.7% | O=C(CN(C(=O)c1csnn1)c1cccc2c1CCCC2)NC1CCCC1
. | . | -10% | 0.5% | Cc1cc(C(=O)CN2C(=O)C(=O)N(Cc3ccccc3)C2=O)c(C)n1Cc1ccc(F)cc1
-8% | 3 | -9% | 4.8% | O=C(/C=C/c1cc([N+](=O)[O-])ccc1OC(F)F)Nc1ccc(OC(F)F)cc1
10% | -8 | -11% | -0.2% | COCCNC(=O)CSc1c2c(nc3ccc(Cl)cc13)CCCC2
-11% | -2 | -7% | -3.8% | O=C(Nc1nnc(SCc2ccc(Cl)cc2)s1)C1CCCO1 (stereo not given)
-8% | -2 | -8% | 2.9% | Cc1cc(C)nc(N2CCC(C(=O)NCc3ccccc3)CC2)n1
16% | -15 | 12% | 1.2% | Cc1cccc(N2CCN(C(=O)CC(NC(=O)c3ccccc3Cl)c3ccccc3)CC2)c1C (stereo not given)

An excerpt, so the mix of outcomes need not match the whole.
